# Screening data: PubChem, several laboratories
# Env fusion inh – inhibitors of HIV Env-mediated cell fusion. HeLa-JRFL Env/CEM21 cell fusion, luciferase. inhibition, % at 12.3 µM. 1.1% of 360,000 active. AID 651610;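 active = mean replicate inhibition score of at least 50 and every replicate individually at or above 50; inconclusive = only one of the two criteria met; inactive = mean below 50 and not all replicates reaching 50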;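 note: 0% = plate neutral controls and 100% = maraviroc near 300 nM; one replicate is shown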
# UUG fidelity – alters start codon recognition fidelity in yeast. activity score, % at 18.7 µM. 0.13% of 350,000 active. S. cerevisiae UUG-firefly luciferase reporter, luminescence/redox ratio;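 active = replicate mean at a twofold rise or more, about +100% in these data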;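 note: firefly luciferase made from a UUG start codon reports start codon fidelity; reporter light over untreated wells divided by growth signal over untreated wells; some hits fall short of that in this replicate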
# PABP FP inh – blocks human PABP binding to poly(A) RNA. P11940. fluorescence polarization. inhibition, % at 35 µM. 1% of 290,000 active. AID 2014;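 active = 50% or more with normal probe brightness, or confirmed in later tests; inconclusive = above 50% with abnormal brightness, or retests that disagree; inactive = below 50% or failed in later tests; about a fifth of its hits are not listed in these tables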;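 note: calls also rest on retests at 20 µM and on dose response follow-up; controls were probe without protein and protein plus probe with vehicle; some compounds called inactive have numbers as strong as hits; many hits fall short of the cut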
# Target sequence (P11940 whole entry, looked up): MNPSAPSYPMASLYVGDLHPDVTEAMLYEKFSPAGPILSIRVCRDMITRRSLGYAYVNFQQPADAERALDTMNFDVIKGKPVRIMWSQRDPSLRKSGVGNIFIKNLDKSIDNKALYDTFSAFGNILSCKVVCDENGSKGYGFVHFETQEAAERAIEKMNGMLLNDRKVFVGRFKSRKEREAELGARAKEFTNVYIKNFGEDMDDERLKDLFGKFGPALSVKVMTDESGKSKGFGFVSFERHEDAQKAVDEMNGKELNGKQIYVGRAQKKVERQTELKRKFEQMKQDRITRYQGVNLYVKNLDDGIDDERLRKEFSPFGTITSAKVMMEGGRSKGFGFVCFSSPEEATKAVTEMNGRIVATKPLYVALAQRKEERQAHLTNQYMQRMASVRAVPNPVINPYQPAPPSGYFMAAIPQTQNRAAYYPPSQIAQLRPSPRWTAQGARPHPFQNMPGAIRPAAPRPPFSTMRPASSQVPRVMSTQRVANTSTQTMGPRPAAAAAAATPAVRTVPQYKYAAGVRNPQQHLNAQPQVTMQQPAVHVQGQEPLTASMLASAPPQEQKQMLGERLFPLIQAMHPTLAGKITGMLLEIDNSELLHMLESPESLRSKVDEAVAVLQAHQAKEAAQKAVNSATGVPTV
# Rce1 inh – yeast Ras-converting enzyme inhibition. yeast membranes, quenched prenylated peptide cleavage fluorescence. Q03530. calls only. 0.27% of 290,000 active;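 active = fall in fluorescence gain of 50% or more versus controls, with final raw signal at or below 3038400; inconclusive = same 50% fall but final raw signal above 3038400; inactive = fall in fluorescence gain under 50%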;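 note: plate controls were neutral control wells for no effect and wells lacking membranes for full effect; tested at 10 µM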
# Target sequence (Q03530 whole entry, looked up): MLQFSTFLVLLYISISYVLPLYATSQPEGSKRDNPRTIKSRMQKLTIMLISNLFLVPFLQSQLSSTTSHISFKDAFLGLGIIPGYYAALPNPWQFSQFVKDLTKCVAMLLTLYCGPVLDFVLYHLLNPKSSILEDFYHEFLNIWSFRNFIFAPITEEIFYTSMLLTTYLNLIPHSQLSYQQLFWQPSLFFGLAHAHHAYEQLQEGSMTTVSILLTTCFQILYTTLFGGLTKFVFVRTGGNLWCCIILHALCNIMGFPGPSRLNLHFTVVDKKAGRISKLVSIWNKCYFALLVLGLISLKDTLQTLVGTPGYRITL
# CSC inhib – blocks cancer stem cells | cancer stem cell-like cells viability, luminescence | inhibition, % at 7.5 µM | 1.1% of 300,000 active | AID 2717;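 active = mean at 75% or more and at least half the replicates too; inconclusive = mean and replicates disagree; tested in HMLE shEcad cells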;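 note: 0% = median of negative and 100% = median of positive control wells; the first replicate is given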
# MT1-MMP act inh – inhibitors of human MT1-MMP activation; P50281; HT1080 RFP-PRO-GFP cells, GFP/RFP ratio fluorescence, overnight; percent of plate control window, DMSO zero; GFP/RFP ratio change, % at 20 µM; 0.061% of 360,000 active;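 active = GFP/RFP ratio change of at least 30% with cell ATP level not reduced by more than half and red fluorescence within 50% of control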; note: strong numbers were not always called active
#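 Test system: HT1080 RFP-PRO-GFP cells; Benchmarks: DMSO and RFP-L50D-GFP cell wells; Timing: cells overnight before dosing, compound overnight, 37 °C, 5% CO2; Compound: one 20 µM compound dose with 1% DMSO; Read-out: GFP/RFP fluorescence ratio.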
# eIF4H inh – inhibitors of RNA binding by human eIF4H; Q15056; eIF4H fluorescence polarization binding assay; inhibition, % at 35 µM; 0.94% of 290,000 active; AID 2012;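 active = 50% or more with normal probe brightness, or confirmed in later tests; inconclusive = above 50% with abnormal brightness, or retests that disagree; inactive = below 50% or failed in later tests; about a fifth of its hits are not listed in these tables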;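 note: calls also rest on retests at 20 µM and on dose response follow-up; 0% = protein and probe with vehicle and 100% = probe without protein; strong numbers were not always called active; many hits fall short of the cut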
# eIF4H inh retest – also measured in eIF4H inh; calls as there; inhibition, %; compound at 20 µM; confirmation average;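 mean of two retest wells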
# PABP FP inh retest – recorded beside PABP FP inh, whose call it bears; inhibition, %; compound at 20 µM; confirmation repeats;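 mean of two retest wells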
# MT1-MMP act inh RFP – recorded beside MT1-MMP act inh, whose call it bears; RFP signal change, %; measured here: RFP expression control read;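 0 = vehicle wells; hits needed this value within 50% of zero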
# Active calls of the source: *; i = inactive; ? = inconclusive; . = not tested or not shown; & = joins results of further samples. These rows are one share of the data; count on the stated rates, not on these rows.
# Sample of the layout (three entries):
SMILES,Env fusion inh,UUG fidelity,PABP FP inh,Rce1 inh,CSC inhib,MT1-MMP act inh,MT1-MMP act inh RFP,eIF4H inh,others
CCOc1ccccc1-n1c(O)c(C=NCCCn2ccnc2)c(=O)[nH]c1=O,7.0,-14.1,-2.7,i,-6.2,-3.5,2.0,-2.4,
O=c1[nH]c(=O)n(C2CCCCC2)c(O)c1C1NCCc2ccccc21 (stereo not drawn),.,-18.4,25.8,i,-3.0,-11.1,5.4,-2.8,
C=C(CC1CC(O)[C@]2(C)OC3CC4OC5C[C@]6(C)O[C@]7(C)CCC8OC9C[C@]%10(C)OC%11C(C)=CC(=O)OC%11CC%10OC9C[C@@H](C)C8OC7CC6O[C@]5(C)C/C=C\C4OC3CC2O1)C(=O)O (stereo partly drawn),11.0,55.8,1.3,i,-9.2,7.7,-1.8,7.5,

# The listing, repeating the preview:
SMILES,Env fusion inh,UUG fidelity,PABP FP inh,Rce1 inh,CSC inhib,MT1-MMP act inh,MT1-MMP act inh RFP,eIF4H inh,others
CCOc1ccccc1-n1c(O)c(C=NCCCn2ccnc2)c(=O)[nH]c1=O,7.0,-14.1,-2.7,i,-6.2,-3.5,2.0,-2.4,
O=c1[nH]c(=O)n(C2CCCCC2)c(O)c1C1NCCc2ccccc21 (stereo not drawn),.,-18.4,25.8,i,-3.0,-11.1,5.4,-2.8,
C=C(CC1CC(O)[C@]2(C)OC3CC4OC5C[C@]6(C)O[C@]7(C)CCC8OC9C[C@]%10(C)OC%11C(C)=CC(=O)OC%11CC%10OC9C[C@@H](C)C8OC7CC6O[C@]5(C)C/C=C\C4OC3CC2O1)C(=O)O (stereo partly drawn),11.0,55.8,1.3,i,-9.2,7.7,-1.8,7.5,
CC(=O)Nc1ccccc1C(=O)OCc1ccc(F)cc1,-42.9,.,-3.2,i,11.2,0.7,-1.7,2.0,
O=[N+]([O-])c1cccc(CN2CCN(Cc3ccc(Br)cc3)CC2)c1,-46.2,.,5.8,i,3.5,-2.0,-15.5,-12.3,
CCOC(C(=O)OCCC[N+](C)(CC)CC)(c1ccccc1)c1ccccc1,-8.5,-16.3,0.9,i,0.8,4.8,2.6,4.6,
O=C(CN1CCOCC1)c1cccc2ccccc12,-2.4,4.4,38.5,i,-3.5,-5.6,7.7,18.5,
O=C(CNS(=O)(=O)c1ccc(Br)s1)N1CCC2(CC1)OCCO2,.,-18.5,-3.4,i,7.1,0.9,4.2,-7.4,
OC(C#CCN1CCOCC1)(c1ccccc1)C1CCCC1 (stereo not drawn),.,5.6,-16.6,i,-12.7,0.7,2.9,9.1,
CC1CN=C(NCc2ccccc2Cl)S1 (stereo not drawn),-0.6,-3.0,-3.6,i,-13.3,-8.5,-3.1,-7.4,
COc1ccc(OC)c(C(O)C(C)N)c1 (stereo not drawn),15.1,1.5&-16.3,-6.0,i,.,2.5,4.2,1.0,
COC(=O)C1=C(c2cccc(C#N)c2)C[C@@H]2CC[C@H]1N2C(=O)NC1CCCCC1,-9.0,2.0,.,.,-12.2,1.3,2.0,.,
O=C(CCc1ccc(O)cc1)N1C[C@H]2C[C@@H](C1)c1cccc(=O)n1C2,.,-11.3,-1.7,i,-9.7,1.4,5.3,4.0,
COC(=O)C1=C(c2ccc(F)cc2OCc2ccccc2)C[C@@H]2CC[C@H]1N2C(=O)NCCOc1ccc(OC)cc1,1.1,-12.0,.,.,41.1,1.2,-9.5,.,
N/C(=N\[N+](=O)[O-])N1CCN(C(=O)Oc2ccccc2)CC1,9.4,-25.1,6.9,i,-11.0,-1.5,0.1,1.3,
C=CCN1C(=O)NC(=O)/C(=C/c2cccn2C)C1=O,.,0.1,63.7,i,-20.2,-4.7,8.6,103.5,eIF4H inh retest=44.3;PABP FP inh retest=44.2
O=C(O)CCn1cc(C=C2C(=O)NC(=O)NC2=O)c(-c2cc3ccccc3oc2=O)n1,5.2,.,4.6,i,-14.6,-4.1,7.2,-5.4,
CC(C)(C)c1cc([N+](=O)[O-])cc(C(C)(C)C)c1O,58.3*,.,-16.4,i,46.8,.,.,57.6,eIF4H inh retest=32.3;PABP FP inh retest=49.0
S=C(NCCc1ccccc1)N1Cc2cc(-c3ccccc3)ccc2-n2nncc2C1,15.5,-5.3,.,.,.,3.1,-8.1,.,
Nc1ccccc1C(=O)c1ccccc1,-13.3,-10.9,-9.3,i,-19.4,-3.4,0.0,-7.5,
CCCc1c(C)nc(SCC(=O)C(C)(C)C)nc1OC(=O)N(C)C,-2.1,4.6,0.6,i,.,1.9,-1.7,-12.0,
O=C(Cc1ccccc1)N1CCN(Cc2cccc(Br)c2)CC1,14.8,4.5,23.6,i,-14.6,2.9,-5.4,2.4,
O=C(C(Cc1ccccc1)NS(=O)(=O)c1cccc2nsnc12)N1CCC2(CC1)OCCO2 (stereo not drawn),-41.7,1.3,-4.5,i,-8.0,0.8,4.4,-3.8,
CN1CCC(N(C)c2ncnc3ccc(Br)cc23)CC1,.,-29.9,10.3,.,.,-1.6,0.5,0.0,
COCc1cc(C2SCC(=O)Nc3c2c(=O)[nH]n3C(C)C)ccc1OC (stereo not drawn),.,-3.1,1.8,i,8.6,-0.4,-1.0,-0.9,
Cc1c(C(=O)N2CCC3(CC2)OCCO3)oc2ccc(S(=O)(=O)N3CCCCC3)cc12,8.6,.,-7.4,i,15.3,-6.5,-1.0,-3.0,
NC(=O)c1ccc(OCCC(O)N2CC=C(c3ccc(F)cc3)CC2)cc1 (stereo not drawn),13.3,-15.7,.,.,-8.0,-1.0,1.3,.,
COC(=O)C1=C(c2cc3ccccc3o2)C[C@@H]2CC[C@H]1N2C(=O)NCc1ccc(F)cc1,-7.9,-6.3,.,i,-12.1,-1.2,-10.9,.,
COC(=O)C1=C(c2cccc(NC(C)=O)c2)C[C@@H]2CC[C@H]1N2C,6.7,-7.1,.,.,-6.5,-0.3,1.4,.,
CN(C)S(=O)(=O)c1cc(C(=O)N2CCC(C(=O)O)(c3ccccc3)CC2)ccc1Cl,-9.1,-5.0,7.1,i,-9.1,4.7,0.7,-1.5,
C=CCn1c(O)c(C=Nc2ccc(OC)cc2C)c(=O)[nH]c1=O,36.5,-17.9,-15.8,i,-16.7,0.2,2.7,-8.3,
Cc1nc2ccccc2c(=O)n1/N=C/c1cc(Br)cc(Br)c1O,12.7,.,.,i,10.3,-0.5,2.2,.,
NP(=O)(OCC(F)(F)F)Oc1cccc2ccccc12 (stereo not drawn),-3.7,-3.9,12.9,i,-10.4,2.1,1.9,3.8,
O=c1c2ccccc2nc(-c2ccccc2)n1-c1cccc(O)c1,29.0,.,29.9,i,69.9,-3.7,-1.6,28.1,
O=C(N/N=C/c1c(O)n(C2CCCCC2)c(=S)[nH]c1=O)c1ccccc1,-2.3,-10.2,-0.7,i,8.2,15.4,18.8,4.0,
C[C@H]1CC[C@@]2(C)[C@@H](CC[C@@H]3[C@@H]2CC[C@]2(C)[C@@H](O)CC[C@@H]32)C1,-6.5,4.1,5.1,i,5.6,3.3,4.2,1.2,
COc1cccc(-n2c(C)nc3ccccc3c2=O)c1,32.4,-1.4,-0.6,i,-11.7,0.4,5.4,1.1,
O=C(COc1ccc(Cl)cc1)N1CCN(C/C=C/c2ccccc2)CC1,.,-9.7,5.2,i,8.4,1.1,-9.5,3.0,
CC1(C)NC(=S)C(C)(C)N1N=O,-6.1,2.6,.,.,.,1.3,4.8,.,
Cc1cc(=O)[nH]c(SCc2nc3ccccc3c(=O)n2-c2ccccc2C)n1,12.5,.,-4.0,i,-10.4,-2.2,5.0,-10.3,
C=CC12CN(C)[C@@H]3C4CO[C@H](C[C@H]41)[C@]1(C(=O)Nc4ccccc41)[C@@H]32 (stereo partly drawn),.,-17.9,.,i,-9.1,-0.5,5.5,.,
Cc1ccccc1-c1ccc2c(c1)C1c3c(-c4ccccc4)nnn3-c3ccccc3C(=O)N1CC2 (stereo not drawn),24.8,-6.9,.,.,.,-1.8,-10.7,.,
CCOc1ccc(N2C(=O)CC(=O)NC2=O)cc1,3.0,-13.7,-15.0,i,-11.5,-7.0,1.6,35.7,
CCCC(C)(COC(N)=O)COC(=O)NC(C)C (stereo not drawn),.,-18.5,-5.0,i,.,-3.0,2.8,2.4,
COC(=O)C1=C(c2ccc3ccccc3c2)C[C@@H]2CC[C@H]1N2C(=O)NCCNC(C)=O,.,-6.9,.,.,-12.2,0.7,2.9,.,
N#CC(C#N)=NNc1ccc(-n2ccc(C(F)(F)F)n2)cc1,-17.0,-3.9,1.7,i,64.3,-13.3,-33.2,0.9,
CC(C)Oc1cc(-n2c(=S)[nH]c3ccccc3c2=O)c(Cl)cc1Cl,.,-16.8,-10.9,i,-20.2,3.2,-5.8,-1.4,
O=[N+]([O-])c1ccc(N2CCNCC2)cc1NC1CC1,.,.,1.0,i,-8.3,.,.,-1.2,
COc1cc(OC)cc(C(=O)Nc2ccc(Br)cc2C(=O)c2ccccc2)c1,.,.,-5.4,i,-7.3,-3.9,-1.1,-7.5,
c1ccc(-c2cc(-c3ccccc3)[n+](-c3ccccc3)c(-c3ccccc3)c2)cc1,80.1*,-3.2,2.7,i,37.4,-16.9,-29.0,3.7,
O=C(CCc1ccccc1)N1Cc2cc(-c3cccc(F)c3)ccc2-n2nncc2C1,-9.5,-11.0,.,.,.,1.3,-1.9,.,
O=[N+]([O-])c1ccc(NCCO)c2ncccc12,.,.,-3.9,i,-3.1,6.9,5.3,-5.9,
O=c1c2ccccc2nc(CNCc2ccco2)n1-c1ccc(F)cc1,-152.0,.,2.1,i,6.4,-2.3,8.7,19.4,
N#CC(C#N)=Cc1ccc(-c2ccccc2F)o1,24.5,.,7.3,.,18.2,-6.8,-2.8,41.7,
CN1CCc2c(c(N3CCCCC3)nc3n[nH]c(N)c23)C1,-11.1,.,-7.9,i,4.5,-1.3,0.9,-0.6,
O=C(Cn1c(=O)c(C(F)(F)F)nc2ccccc21)N1CCC2(CC1)OCCO2,.,-12.0,10.4,i,3.2,2.1,5.7,-7.7,
O=C1NCN(c2ccccc2)C12CCN(C(CCc1ccccc1)c1nnnn1C1CCCCC1)CC2 (stereo not drawn),-3.3,-14.0,.,.,.,-3.2,-13.4,.,
O=c1[nH]c(O)c(N=Nc2ccc(SC(F)F)cc2)c(=O)[nH]1,-25.4,-23.1,5.0,.,4.5,6.1,2.9,27.7,
O=C1Nc2ccc(Br)cc2C(c2ccc(Cl)cc2)=NC1O (stereo not drawn),4.8,-2.5,3.0,i,-5.9,3.9,1.7,-7.4,
COC(=O)C1=C(c2ccc3ccccc3c2)C[C@@H]2CC[C@H]1N2C(=O)NCC1CC1,4.8,-0.7,.,.,4.7,2.1,-12.4,.,
# Next part
SMILES,Env fusion inh,UUG fidelity,PABP FP inh,Rce1 inh,CSC inhib,MT1-MMP act inh,MT1-MMP act inh RFP,eIF4H inh,others
CCOc1ccc(C2CC(c3c(O)n(C)c(=O)n(C)c3=O)=NN2)cc1 (stereo not drawn),-56.2,-27.0,5.6,i,2.2,-1.1,1.8,-9.8,
CN1C(=O)C(=Cc2cn(CC#N)c3ccccc23)C(=O)N(C)C1=O,-13.2,-0.8,?,i,-3.8,-6.0,-0.6,?,
C#CCOc1cc(C2C3=C(COC3=O)Nc3cc4c(cc32)OCO4)ccc1OC (stereo not drawn),-348.4,.,8.1,i,60.0,12.9,-4.0,2.7,
O=C1CN=C(c2ccc(F)cc2)c2oc3ccccc3c2N1,2.8,.,2.8,i,-4.8,-2.2,0.2,2.0,
CC(C)N1CCN(Cc2cccc3c2OCO3)CC1CCO (stereo not drawn),1.6,-18.1,-9.2,i,-2.2,-0.9,0.8,-0.1,
